Compound activity: PubChem BioAssay, several laboratories
Vif A3G: inhibitors of Vif binding to APOBEC3G peptide, primary screen, biochemical, TR-FRET, GST-Vif 1-94, biotin-A3G peptide, dose response retest (AID 1117319); TR-FRET GST-Vif / biotin-A3G peptide binding; higher % means a stronger effect; test concentration not given here; strong numbers were not always called active; inhibition, %; hits with a dose series show IC50 in µM; 0.57% of 260,000 active;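 active = above the screen mean plus three standard deviations and confirmed in dose response; inconclusive = results disagree or hit not tested in dose response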;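 also: Vif residues 1-94 fused to GST binding biotinylated APOBEC3G peptide 110-148; 0% = full assay without inhibitor and 100% = GST in place of GST-Vif; retest series ran down from 100 µM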
UCH37 DUB inh: blocks the human deubiquitinase UCH37; AID 588478; 0.33% of 330,000 active; inhibition, % (test concentration not listed); Q9Y5K5; purified proteasome/UCH37, Ub-AMC cleavage fluorescence;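 active = mean of two replicates above 20%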;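 also: 0% = compound-free wells with enzyme and 100% = wells lacking proteasome; stock transfer was 100 nL into about 20 µL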
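System: Proteasome-associated human UCH37 deubiquitinase; Input: 0.15 nM proteasome in added enzyme buffer; Also added: Ub-AMC substrate from 1 µM stock; Incubation: 30 min compound-proteasome preincubation then 25 min substrate reaction, room temperature; Detection: fluorescence, ex 355 nm, em 460 nm; Read-out: % inhibition of Ub-AMC cleavage fluorescence; Benchmarks: no-proteasome and no-compound wells.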
Bfl-1 A1 inh: inhibitors of the anti-apoptotic protein A1, read as caspase activation; MEF A1-2A-BIM cells, Caspase-Glo 3/7 luminescence, 3 h; percent of clofoctol response, vehicle zero; caspase activation, % (test concentration not listed); 0.066% of 330,000 active; AID 2462;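 active = over half of replicate activation scores above 10%, or exactly half above 10 with the replicate mean above 10; inconclusive = replicate mean below 10 yet half the replicates above 10; inactive = over half of replicates below 10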;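 also: wells of about 30 µL received 50 nL stock; many hits fall short of the cut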
HNF4A DNA FP: change in binding of human HNF4 alpha to DNA | 0.3% of 360,000 active | HNF4a-FITC DNA binding, fluorescence polarization, 1 h | activity change, % at 10 µM | P41235; in the data active = activity change above about 30%, passing the limit was not always enough;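 also: controls were the assay level and a saturating level of protein; the project sought stronger binding though the title names inhibitors; some compounds called inactive have numbers as strong as hits; positive values seem to mean higher polarization but the record does not say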
Target sequence (P41235 whole entry, looked up): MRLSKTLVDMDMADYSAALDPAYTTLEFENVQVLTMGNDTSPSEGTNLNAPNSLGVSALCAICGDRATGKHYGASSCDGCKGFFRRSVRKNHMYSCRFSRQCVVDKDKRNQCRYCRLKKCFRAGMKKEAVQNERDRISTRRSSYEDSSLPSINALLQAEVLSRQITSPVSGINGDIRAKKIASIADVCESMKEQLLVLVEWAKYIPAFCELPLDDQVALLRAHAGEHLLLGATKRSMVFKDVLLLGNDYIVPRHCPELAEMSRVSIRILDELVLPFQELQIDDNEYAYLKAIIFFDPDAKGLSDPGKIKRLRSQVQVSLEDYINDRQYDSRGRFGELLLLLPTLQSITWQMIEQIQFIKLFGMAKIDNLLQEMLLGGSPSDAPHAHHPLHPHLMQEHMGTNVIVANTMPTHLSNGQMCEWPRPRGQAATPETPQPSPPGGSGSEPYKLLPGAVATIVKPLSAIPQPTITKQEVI
LANA-H2A inh: blocks KSHV LANA binding to histone H2A/H2B | cell-free LANA-H2A/H2B peptide, fluorescence polarization | inhibition, % (concentration not given with the values) | 0.6% of 320,000 active; in the data active = inhibition mostly above about 10%, no sharp cut-off; inactive = mostly below about 6.7%;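 also: stock transfer was 7.5 nL into about 10 µL; 0% = median of vehicle wells and 100% = median of positive control wells; one replicate is shown; the record names a cut of 25% in any replicate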
Ecoli growth: E. coli growth inhibition. Escherichia coli growth, OD600, 23 h; stronger effect = lower value. 0.21% of 330,000 active. OD600 absorbance (test concentration not listed);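 active = OD600 absorbance below the run mean of sample wells minus 3.6 SD, in any replicate, cut at about 0.56 in these data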;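 also: stock transfer was 300 nL into about 60 µL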
Beta2AR agonist: human beta-2 adrenergic receptor agonism by FAP. 0.43% of 340,000 active. response, % (no concentration beside the values). Am2.2-beta2AR cells, FAP receptor internalization, flow cytometry; reference of the scale not given here. P07550. AID 504454;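 active = response above a set limit, near 3 SD of response in nonfluorescent compounds, cut at about 42% in these data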;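 also: stock transfer was 100 nL into about 11 µL; a reference agonist was the positive control; negative values mostly stem from fluorescent compounds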
Target sequence (P07550 whole entry, looked up): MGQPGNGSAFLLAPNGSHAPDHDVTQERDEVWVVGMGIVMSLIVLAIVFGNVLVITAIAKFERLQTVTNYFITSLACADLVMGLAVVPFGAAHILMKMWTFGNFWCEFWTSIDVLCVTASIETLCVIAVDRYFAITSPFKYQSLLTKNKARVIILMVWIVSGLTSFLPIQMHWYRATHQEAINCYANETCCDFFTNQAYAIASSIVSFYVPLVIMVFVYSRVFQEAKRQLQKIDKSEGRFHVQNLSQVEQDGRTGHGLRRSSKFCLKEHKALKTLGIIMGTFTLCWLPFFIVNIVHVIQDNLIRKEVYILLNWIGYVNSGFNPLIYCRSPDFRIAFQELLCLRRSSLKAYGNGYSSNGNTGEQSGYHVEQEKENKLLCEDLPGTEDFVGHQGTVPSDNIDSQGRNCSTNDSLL
Starred values were filed as active, the others as inactive; ? = inconclusive; nt = no result given; & = joins results of further samples. This is a random part of the collection; 2.1% or so of the library scored in one or more.

SMILES	Vif A3G	UCH37 DUB inh	Bfl-1 A1 inh	HNF4A DNA FP	LANA-H2A inh	Ecoli growth	Beta2AR agonist
COc1cccc(NC(=O)CN(C)C(=O)c2cc(-c3ccccc3)nc3ccc(C)cc23)c1	0%	-2.1	nt	-0.8	nt	0.72	13
CC(C)Oc1cccc(C(=O)Nc2ncn[nH]2)c1	nt	5.3	0.8	0.8	-0.5	0.72	2
COc1ccc(CC(=O)Nc2cccc3ccccc23)cc1OC	-7%	1.9	0.3	-1.9	-5.5	0.66	1
O=C(Nc1ccccc1C(=O)NC(Cc1ccccc1)C(=O)NC1CCCCCC1)c1ccccc1 (stereo unspecified)	-4%	-20	0.5	-0.8	0.0	0.8	10
CCOC(=O)CSc1ccc(-c2nc3cc(C)c(C)cc3[nH]2)cn1	15%	-28	-2.6	-0.2	-4.4	0.72	21
Cn1cc(Cl)c(/C(N)=N/OC(=O)c2ccccc2C(F)(F)F)n1	2%	2.7	-0.3	-2.8	1.7	0.66	-1
O=C(NCC1COc2ccccc2O1)c1cc(S(=O)(=O)N2CCOCC2)c(Cl)cc1Cl (stereo unspecified)	4%	1.3	nt	1.8	nt	0.62	-7
COC(=O)CCCC1=CC2=C(c3ccccc3)C(=O)C(C)(OC(=O)C3CCCC3)C(=O)C2=CN1C1CC1 (stereo unspecified)	nt	2.1	0.9	-4.6	59*	0.66	3
COc1cccc(C(=O)N(CN2CCCC2=O)c2cc(C)on2)c1	?	2.0	-0.2	2.1	-1.6	0.68	0
COc1ccc(CCNC(=O)c2n[nH]c3ccccc23)cc1	nt	1.0	0.0	-5.5	-0.3	0.66	-5
Cc1ccc(S(=O)(=O)Nc2ccccc2C(=O)Nc2sccc2C(=O)NN(C)C)cc1	6%	-1.5	-0.5	2.0	-6.1	0.72	8
Cc1nn(S(=O)(=O)c2cccc([N+](=O)[O-])c2)c(C)c1Br	14%	3.6	-0.7	3.7	-2.5	0.63	-4
CC(C)(C)n1nc2c(c1NC(=O)c1ccccc1S(=O)(=O)C(F)F)CS(=O)(=O)C2	nt	1.3	-1.5	2.3	0.5	0.68	2
O=C(NCCS(=O)(=O)NC1CCCCC1)c1ccc2c(c1)OCO2	2%	2.5	-0.6	2.5	3.2	0.68	4
COc1ccc(CCNc2cc(C)[nH]c(=O)c2)cc1OC	3%	4.8	0.9	-3.2	2.2	0.73	5
O=C1CC(NNc2nc3ccccc3s2)C(=O)N1c1ccccc1 (stereo unspecified)	-9%	-0.6	-0.2	2.6	-0.8	0.7	5
O=C(COc1nc2ccccc2nc1N1CCOCC1)Nc1cccc(S(=O)(=O)N2CCCCC2)c1	11%	-4.0	-0.3	4.0	2.2	0.68	-2
CC(OC(=O)Cc1n[nH]c(=O)c2ccccc12)C(=O)Nc1ccc(S(N)(=O)=O)cc1 (stereo unspecified)	6%	-0.9	nt	13	nt	0.71	-2
Cc1ccc(-c2c[n+](CC(=O)N3c4ccccc4Sc4ccccc43)c3n2CCC3)cc1	nt	6.4	-1.0	4.0	-1.4	0.72	0
Nc1nc(SCC(=O)Nc2ccc(F)cc2)[nH]c(=O)c1NC(=O)c1ccc(F)c(F)c1	-8%	2.3	0.0	3.9	6.9	0.73	-4
O=C(C1CC1)N1CCN(S(=O)(=O)c2ccc3c(c2)OCCO3)CC1	32%	3.5	0.4	2.2	-0.7	0.72	-1
N=C1C(=O)OCC1c1ccccc1NC(=O)CN1CCCCC1 (stereo unspecified)	0%	1.5	0.3	4.2	-3.9	0.6	-1
CCOC(=O)c1sc2ncn(/N=C/c3cccnc3)c(=O)c2c1C	-6%	nt	0.0	-2.5	-3.9	nt	-3
Cc1nn(CC(=O)Nc2ccc3c(c2)nc(CN2CCCC2)n3C)c(=O)c2ccccc12	-1%	1.4	-0.3	-1.9	0.4	0.68	4
COc1ccc(NC(=O)N/C=C/c2ccccc2)cc1	-9%	3.9	0.4	0.5	-0.7	0.68	-2

Two entries picked at random from the list so far, as already listed:
SMILES	Vif A3G	UCH37 DUB inh	Bfl-1 A1 inh	HNF4A DNA FP	LANA-H2A inh	Ecoli growth	Beta2AR agonist
O=C(COc1nc2ccccc2nc1N1CCOCC1)Nc1cccc(S(=O)(=O)N2CCCCC2)c1	11%	-4.0	-0.3	4.0	2.2	0.68	-2
CCOC(=O)c1sc2ncn(/N=C/c3cccnc3)c(=O)c2c1C	-6%	nt	0.0	-2.5	-3.9	nt	-3

More results follow:
SMILES	Vif A3G	UCH37 DUB inh	Bfl-1 A1 inh	HNF4A DNA FP	LANA-H2A inh	Ecoli growth	Beta2AR agonist
CC1CC2=C(NC(=S)NC2c2ccccc2F)/C(=C/c2ccccc2F)C1 (stereo unspecified)	-1%	1.5	0.6	2.7	0.4	0.69	6
Cc1noc(C)c1CSCC(=O)Nc1ccccc1N1CCCCC1	nt	nt	-0.4	-0.8	1.4	nt	5
COC(=O)c1c(-c2ccc(OC)cc2)oc2ccccc12	nt	1.2	0.9	2.4	-3.2	0.79	1
CCCCN(CC)CCCNC(=O)c1ccc2c(c1)N(CC)C(=O)c1ccccc1S2(=O)=O	-5%	4.5	0.7	2.2	6.0	0.67	2
COc1ccc(NC(=O)CCCNC(=O)c2ccc(Cl)cc2)cc1S(=O)(=O)N1CCCCC1	nt	0.3	nt	0.0	nt	0.7	10
O=[N+]([O-])c1ccc(Oc2ccc(F)cc2Br)c2ccncc12	-9%	0.7	0.8	-1.1	1.4	0.7	1
COCC(=O)Nc1cc(C(=O)NCCc2ccccc2)ccc1Cl	nt	-1.8	-0.1	1.1	nt	0.72	-6
CS(=O)(=O)c1ccccc1-c1nnc(NC(=O)COc2ccc(Cl)cc2)o1	-5%	-2.3	0.7	-4.4	nt	0.65	11
C/C(=N\NC(=O)c1sccc1-n1cccc1)c1cccs1	-7%	nt	0.2	3.2	-0.1	nt	-13
COc1ccc(Cl)cc1N(CC(=O)N1CCC(C)CC1)S(C)(=O)=O	?	0.1	0.4	-1.7	-2.4	0.69	-7
CC1CCN(Cc2ccc(NC(=O)C3CCN(c4nnc(-n5cccc5)s4)CC3)cc2)CC1	-2%&3%	-2.0	-0.6	16	-3.3	0.69	9
NC(=O)c1ccccc1NC(=O)NC1CCCCC1	-5%	3.6	0.1	0.6	0.0	0.67	-11
Cc1cc2ccccc2n1CCNC(=O)C1CC1	nt	2.0	0.3	-9.5	-6.2	0.69	-15
COc1ccc(NC(=S)NCC(c2ccco2)N2CCCC2)cc1 (stereo unspecified)	-5%	-0.3	-0.2	7.3	4.3	0.63	2
COc1c2occc2c(OC(C)=O)c2c(=O)cc(C)oc12	-12%	3.7	0.1	1.0	-3.9	0.68	0
Cc1ccc(CCNC(=O)CC2Oc3ccc(C)cc3NC2=O)cc1 (stereo unspecified)	12%	3.2	0.9	7.9	-3.9	0.81	5
CN(C)c1ccc(CN(C(=O)/C=C/c2ccccc2Cl)C2CCS(=O)(=O)C2)cc1 (stereo unspecified)	14%	2.6	0.6	-3.1	-7.1	0.63	-2
COc1ccccc1OCc1ccc(C(=O)N(C)c2ccccc2)o1	0%	-1.2	0.5	5.8	3.6	0.68	4
CCSc1nnc(NC(=O)c2ccc(F)c(S(=O)(=O)N3CCOCC3)c2)s1	nt	8.4	0.5	-1.4	-0.9	0.67	7
O=C(N[C@@H]1C/C=C\C[C@@H](CC(=O)N(CCO)Cc2ccccc2)C(=O)N[C@@H](c2ccccc2)COC1=O)OCC1c2ccccc2-c2ccccc21	nt	3.0	-0.1	1.9	4.6	nt	-2
COc1cc(OC)cc(C(=O)Nc2ccccc2N2CCOCC2)c1	1%	1.4	0.6	7.0	-3.0	0.7	-13
CCCCCc1c(O)nc(SCCN(C)C)[nH]c1=O	2%	0.5	0.7	-2.8	0.0	0.69	7
Clc1cc(-c2ccc(/C=N/n3cnnc3)o2)ccc1Br	-5%	nt	0.1	-3.6	-11	nt	-8
CCn1nc(NS(=O)(=O)c2ccccc2)c2cc3cc(C)ccc3nc21	nt	1.0	0.5	1.1	-2.9	0.72	10
Cc1nn(C)c(C(=O)NC2C3CC4CC(C3)CC2C4)c1Cl (stereo unspecified)	-8%	4.4	-0.3	2.9	-1.6	0.71	3
SMILES	Vif A3G	UCH37 DUB inh	Bfl-1 A1 inh	HNF4A DNA FP	LANA-H2A inh	Ecoli growth	Beta2AR agonist
CC1C[C@@]2(NC(=O)NC2=O)C(C)CN1C (stereo partly specified)	16%	0.3	0.2	-0.7	-4.0	0.74	46*
N=C1C(c2ccccc2)=C(O)CN1CCCO	nt	4.8	0.0	-1.2	2.3	0.7	1
O=C(OCc1nnc(-c2ccccc2)o1)c1cc(F)c(F)cc1Cl	2%	5.4	-0.8	5.1	2.5	0.65	-5
CC1CC(C)CN(c2nc(NCc3ccco3)nc(N)c2[N+](=O)[O-])C1 (stereo unspecified)	nt	8.2	0.2	-3.5	-5.3	0.67	2
Cc1ccc(C(=O)Nc2ccccc2-c2ccccc2)o1	-3%	-3.2	0.8	-1.0	-1.9	0.81	2
Cc1ccc(NC(=O)CN2C(=O)c3ccccc3C2=O)c(C)c1	11%	nt	0.0	-3.3	-2.8	nt	4
CCn1c(SCC(=O)NC2CCCCC2)nnc1C(CO)NC(=O)c1ccccc1 (stereo unspecified)	nt	0.7	-0.8	2.7	4.0	0.71	-4
Cn1cc(SCC(=O)Nc2nccs2)c2ccccc21	6%	1.9	-0.3	1.8	1.5	0.72	0
CS(=O)(=O)N(CC(=O)NC1CCCC1)C1CCCCC1	-6%	0.6	0.7	2.2	-0.7	0.66	13
C#CC(=O)N(c1cccc(OC)c1)C(C(=O)NC1CCCC1)c1cccs1 (stereo unspecified)	-1%	4.2	0.2	2.4	-2.1	0.71	-254
O=C(CN(C(=O)C1CSC(=O)C1)c1cccc(F)c1)NC1CCCC1 (stereo unspecified)	nt	1.8	2.4	-0.4	3.4	0.63	10
COc1ccc(-n2nnc3c(SCC(=O)Nc4ccc5c(c4)OCCO5)ncnc32)cc1	-1%	1.0	-2.2	nt	-3.5	0.78	nt
COc1ccc(-c2ccc(SCC(=O)Nc3cccc(C(C)=O)c3)nn2)cc1OC	1%	2.5	-1.0	4.7	2.2	0.72	6
CSc1cccc(NS(=O)(=O)c2ccc3c(c2)oc(=O)n3C)c1	5%	2.6	0.5	-0.1	2.5	0.74	-13
O=c1ccc(-c2ccc(S(=O)(=O)Nc3cccc(F)c3)o2)n[nH]1	nt	3.8	-0.2	-5.1	0.0	0.68	6
Cc1ccc(NC(=O)c2cc(C(=O)c3cc(Cl)ccc3O)cn(-c3ccc(C)cc3)c2=O)cc1	1%	2.7	-0.4	4.5	4.2	0.67	24
O=C(CN1C(=O)N/C(=C\c2ccccc2OCc2ccc(C(=O)O)cc2)C1=O)Nc1ccccc1F	nt	-7.7	-0.4	-1.9	2.4	0.69	1
Cc1cc(Nc2ccccc2C(=O)O)nc2nc3ccccc3c(=O)n12	-4%	1.6	0.6	5.8	-0.4	0.66	-2
COCCNC(=O)CN1CCOc2ccccc21	9%	2.0	-0.1	3.9	1.4	0.66	4
CN(C(=O)COC(=O)c1cc(-c2ccc(Cl)s2)nc2ccccc12)C1CCS(=O)(=O)C1 (stereo unspecified)	-10%	-196	-1.5	2.0	-4.3	0.66	5
CC(COC(=O)c1ccccc1)(COC(=O)c1ccccc1)/[N+]([O-])=C/c1ccccc1	-4%	0.7	0.7	0.8	-6.6	0.71	-5
CC(=O)Nc1cccc(C(=O)N/N=C/c2cccnc2)c1	5%	nt	1.5	3.6	-0.4	nt	7
O=C(c1cnn2ccccc12)N1CCc2ccccc21	-4%	7.2	-5.1	0.8	3.2	0.71	-14
O=C1NC(=O)C(c2ccccc2)(c2ccccc2)N1	?	0.7&-0.7	-1.1&-0.1	-1.4&1.6	-7.1&-6.1&-3.2	0.69	-3&11
